Compound activity from PubChem.
HPGD inh: inhibitors of human 15-hydroxyprostaglandin dehydrogenase (HPGD) | purified HPGD, NADH fluorescence kinetic, PGE2 substrate | AID 894 | 150,000 tested, 4.3% active | P15428 | Potency, µM, inactives show top-dose activity change, negative = inhibition, most hits filed as inhibitors; active = well fitted inhibition curve with a large enough effect (not every such curve was filed as active); inconclusive = small, poorly fitted or top-dose-only effect, or another doubt; inactive = no such curve, though single readings can be large or run the other way;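 note: top concentration of the series not given in the record; plate controls included wells without enzyme; inactives centre near -10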
Target sequence (P15428 whole entry, looked up): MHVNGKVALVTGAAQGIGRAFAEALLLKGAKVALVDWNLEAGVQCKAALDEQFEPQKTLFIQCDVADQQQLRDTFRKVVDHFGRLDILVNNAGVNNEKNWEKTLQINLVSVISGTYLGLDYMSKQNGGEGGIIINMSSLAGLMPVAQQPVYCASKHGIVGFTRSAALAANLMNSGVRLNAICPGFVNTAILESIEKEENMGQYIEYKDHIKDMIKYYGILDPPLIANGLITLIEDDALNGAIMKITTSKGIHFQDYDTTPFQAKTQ
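NADH formation kinetics: reaction with 30 uM PGE2 and 1 mM NAD+ (final), 20 nM enzyme, Tris-HCl pH 8 with Tween 20, after 15 min compound preincubation at room temperature. Fluorescence change, last versus first of five reads.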
An asterisk follows results filed as active; ? = inconclusive. % is set by controls: 0 for no effect and ±100 for the full control effect; potency is the fitted concentration of half-maximal effect. The list is partial; rates above refer to the full screens.

item	Molecule	HPGD inh
1	CC1CCCCN1CC(=O)Nc1ccccc1Sc1ccccc1 (stereo unspecified)	-4%
2	COc1ccc(C(=O)CSc2ccc(-c3ccccc3)nn2)cc1	?
3	CCN(CC)C(=O)CCNS(=O)(=O)c1ccc(C)cc1	4%
4	O=C(Nc1ccccc1)Nc1cccc2cccnc12	-10%
5	CC1=NN(C(C)C)C(=O)C1	-14%
6	CCN(CC)C(=O)CSc1nc(-c2ccc(C)cc2)nc2c1COC(C)(C)C2	-1%
7	Cc1ccc(S(=O)(=O)/N=C(\CCl)N2CCOCC2)cc1	-17%
8	COc1cc(NC(=O)CSc2ncccc2C(=O)OC(C)C)cc(OC)c1	0%
9	CCCCOc1ccc(C(=O)N/N=C/c2cn[nH]c2-c2ccc(OC)c(OC)c2)cc1	-30%
10	COc1ccc2nc(NC(=O)CCc3nc(-c4ccccc4F)no3)sc2c1	2%
11	Cc1ccc(S(=O)(=O)Nc2ccc(-c3nnc(SCC#N)n3C)cc2)cc1	-20%
12	Cc1nnc(SCC(=O)NC2CCCCC2)n(N)c1=O	2%
13	CC(=O)Nc1cccc(NC(=O)CSc2nnnn2C)c1	1%
14	O=C(Cn1ccc2ccccc2c1=O)NCCC(=O)Nc1ccc2c(c1)OCCO2	-6%
15	Cc1csc(SCC(=O)Nc2nc(-c3ccccc3)cs2)n1	-12%
16	COc1cccc2[nH]c3c(N4CCCCC4)ncnc3c12	?

Ordered by SMILES length (falling): 3 of the compounds above.
item	Molecule	HPGD inh
14	O=C(Cn1ccc2ccccc2c1=O)NCCC(=O)Nc1ccc2c(c1)OCCO2	-6%
15	Cc1csc(SCC(=O)Nc2nc(-c3ccccc3)cs2)n1	-12%
12	Cc1nnc(SCC(=O)NC2CCCCC2)n(N)c1=O	2%

Additional records:
item	Molecule	HPGD inh
17	CCC1=NN(C(=O)Cc2ccc(OC)c(OC)c2)C(O)(C(F)(F)F)C1 (stereo unspecified)	-2%
18	Cc1nnc(NC(=O)C2c3ccccc3Oc3ccccc32)s1	22µM*
19	O=C(Cc1ccccc1)NC1CCN(S(=O)(=O)c2cccc(F)c2)CC1	-5%
20	CCc1cc2cccc(C)c2nc1SCC(=O)c1ccc(NC(C)=O)cc1	-12%
21	Cn1c(SCC2CCCO2)nnc1-c1ccncc1 (stereo unspecified)	-13%
22	C=C(C)[C@H]1CC[C@]2(CO)CC[C@]3(C)[C@@H](CC[C@H]4[C@@]5(C)CC[C@@H](O)C(C)(C)[C@@H]5CC[C@@]43C)[C@H]12	-6%
23	O=C(c1ccccc1C(=O)N1CCN(c2ccccc2)CC1)N1CCN(c2ccccc2)CC1	-2%
24	COc1ccc(-c2nnc(SCC(=O)NC(C)c3ccccc3)o2)cc1OC (stereo unspecified)	-8%
25	CCCCNS(=O)(=O)c1ccc2nc(SCC(=O)Nc3cccc(F)c3)[nH]c2c1	-3%
26	CC(=O)c1cccc(NS(=O)(=O)c2ccc3c(c2)oc(=O)n3C)c1	-23%
27	CN(C)C[C@H]1CCC[C@@H](CN(C)C)C1=O	-3%
28	Cc1ccc(S(=O)(=O)c2cc3c(=O)n4ccccc4nc3n(Cc3ccco3)c2=N)cc1C	-16%
29	CSc1nnc(CSCc2ccc(Cl)cc2Cl)n1-c1ccccc1	-23%
30	COCCn1c(=O)c(-c2ccc(F)c(F)c2)nc2cncnc21	-27%
31	CN(C)c1ccc(/C=C(/C(=O)c2ccc(Cl)cc2Cl)n2cncn2)cc1	-21%
32	CCc1nnc(NC(=O)CSc2nc3c(c(=O)n2CC)SC(C)C3)s1 (stereo unspecified)	-4%
33	COc1ccc2[nH]c(C)c(CN3CCC(C)CC3)c(=O)c2c1	?
34	CCCCC/C=C\C=C\C(O)CCCCCCCC(=O)O (stereo unspecified)	-2%
35	Cc1onc(-c2ccccc2Cl)c1C(=O)Nc1ccc(S(=O)(=O)N2CCCC2)cc1	-3%
36	CC(=O)CN1Cc2ccccc2/C1=N\C(=O)Nc1ccccc1	-4%
37	O=C(Nc1cccc(C(F)(F)F)c1)c1ccccc1NC(=O)C1CCCCC1	-9%
38	O=C(O)c1ccc2cc(-c3ccc(O)c(C45CC6CC(CC(C6)C4)C5)c3)ccc2c1	?
39	CCCCC[C@H](CC(=O)NO)C(=O)N[C@H](C(=O)N1CCC[C@H]1CO)C(C)C	-13%
40	CCCn1c(SCC(=O)Nc2c(C)cccc2CC)nnc1C(C)C	-8%
41	CCOc1cc(C(=O)Nc2ccccc2F)cc(Br)c1OCC	-11%
42	CC(C)Cc1nc(NCCN2CCOCC2)c(C#N)c2c1COC(C)(C)C2	-3%
43	Cc1ccc(Cl)cc1-c1ccc(/C=N/n2cnnc2)o1	-19%
44	CCN(CC)C(=O)CSC1=C(C#N)C(c2ccco2)C(C(=O)OCCOC)=C(C)N1 (stereo unspecified)	?
45	Nc1nc(SCc2ccc([N+](=O)[O-])cc2)nc2nc3c(cc12)CCCC3	1%
46	Cc1ccc(C2(CC(=O)Nc3nccs3)CCOC(C(C)C)C2)cc1 (stereo unspecified)	?
47	COC(=O)c1ccc(C2/C(=C(/O)c3ccc(OC)cc3)C(=O)C(=O)N2Cc2ccco2)cc1 (stereo unspecified)	-11%
48	CC1CC(C)CN(Cc2nc(N)nc(Nc3ccc4ccccc4c3)n2)C1 (stereo unspecified)	0%
49	COC(=O)c1cc(OC)c(OC)cc1NC(=S)N1CCN(C)CC1	-4%
50	COc1ccc(NC(=O)C2CCCN(S(=O)(=O)c3cccnc3)C2)cc1 (stereo unspecified)	-6%
51	COc1ccc(CCNS(=O)(=O)c2ccc(F)cc2)cc1OC	-9%
52	CCOC(=O)CCCn1nc(C)n2c(cc3sccc32)c1=O	-1%
53	COC(=O)NNC(=O)Cc1cccc2ccccc12	4%
54	COc1cc(NCCCC(C)N)c2ncccc2c1 (stereo unspecified)	-17%
55	CC1(C)CC(=O)c2cn3ncnc3nc2C1	-14%
56	COc1ccc(C)cc1NC(=O)C(OC(=O)CNC(=O)c1ccc(Br)cc1)c1ccccc1 (stereo unspecified)	-11%
57	O=C1CCCc2c1cc(C(=O)Nc1ccc(Br)cn1)c(=O)n2-c1ccccc1	35µM*
58	CCOc1ccc(C2CC(=O)n3nc(C45CC6CC(CC(C6)C4)C5)nc3S2)cc1OC (stereo unspecified)	-14%
59	COC(=O)c1[nH]c2c(c1C)C(=O)CC(c1ccc(C)cc1)C2 (stereo unspecified)	1%
60	O=C(O)COc1c(F)c(F)c(C(F)(F)F)c(F)c1F	-7%
61	CCOc1ccc(C2NC(=O)C(C#N)=C(S)N2c2ccc(OC)cc2)cc1OC (stereo unspecified)	-29%
62	COc1cc2c(cc1NC(=O)c1cc(-c3ccncc3)nc3ccc(C)cc13)oc1ccccc12	-22%
63	COC(=O)C1C(=O)c2c([nH]c(C(=O)OC3CCCCC3)c2C)CC1C (stereo unspecified)	-7%
64	O=C(Nc1ccn(Cc2c(F)c(F)c(F)c(F)c2F)n1)c1cccc(Cn2cc([N+](=O)[O-])cn2)c1	-6%
65	CCCCOC(=O)Nc1ccccc1C(=O)N1CCCC1	-1%
66	CCCOc1ccc(C(=O)O/N=C(\CC)c2ccc(C)cc2)cc1	-24%
67	CC(=O)COc1ccc2c3c(c(=O)oc2c1C)CCCCC3	?
68	CCCCC(NC(C)=O)c1nc2ccccc2n1CCCC (stereo unspecified)	-9%
69	COc1cc(-c2n[nH]c(=O)o2)cc(OC)c1OC	-27%
70	Cn1nc(-c2ccc(Cl)cc2)c2cc(C(=O)N3CCN(c4ccccn4)CC3)sc21	?
71	CCN1CCCC1CNC(=O)CSc1cc(=O)n(CC)c2ccccc12 (stereo unspecified)	-30%
72	CC1CCN(C(NC(=O)c2ccco2)C(=O)c2ccccc2)CC1 (stereo unspecified)	-4%

Going on with the list.
item	Molecule	HPGD inh
73	C=CCc1cccc(/C=N/n2cnnc2)c1O	-22%
74	CCOC(=O)c1oc2cc(O)ccc2c(=O)c1-c1ccccc1OC	-13%
75	O=C(NC1(C(F)(F)F)C(=O)Nc2c1c(=O)[nH]c(=O)n2-c1ccc(F)cc1)c1cccnc1 (stereo unspecified)	-13%
76	CCOc1cc(NS(=O)(=O)CC)c(OCC)cc1NC(=O)c1ccco1	-18%
77	Cc1cc(C)n2c(=S)[nH]nc2n1	2.8µM*
78	CCCSc1nnc2c(n1)OC(c1cccn1C)N(C(C)=O)c1ccccc1-2 (stereo unspecified)	-4%
79	Nc1nc2ccc(-c3nc4ccccc4o3)cc2s1	?
80	OCCN(CCO)Cc1ccc(Br)cc1	-1%

Some of the entries above in a different format.
| No. | HPGD inh | canonical_smiles |
| --- | --- | --- |
| 73 | -22% | C=CCc1cccc(/C=N/n2cnnc2)c1O |
| 77 | 2.8µM* | Cc1cc(C)n2c(=S)[nH]nc2n1 |

Among those listed so far, these contain bromine:
item	Molecule	HPGD inh
41	CCOc1cc(C(=O)Nc2ccccc2F)cc(Br)c1OCC	-11%
56	COc1ccc(C)cc1NC(=O)C(OC(=O)CNC(=O)c1ccc(Br)cc1)c1ccccc1 (stereo unspecified)	-11%
57	O=C1CCCc2c1cc(C(=O)Nc1ccc(Br)cn1)c(=O)n2-c1ccccc1	35µM*
80	OCCN(CCO)Cc1ccc(Br)cc1	-1%

The list goes on.
item	Molecule	HPGD inh
81	CCOc1ccc(NC(=O)Cn2cncc2-c2ccc([N+](=O)[O-])cc2)cc1	-12%
82	COCCn1ccc(O)c(Cc2ccc(Cl)cc2)c1=O	-4%
83	CC(=O)OC1C(OC(C)=O)N(C(C)=O)C(=O)N1C(C)=O (stereo unspecified)	1%
84	OC(COc1ccc2ccccc2c1)Cn1ccnc1 (stereo unspecified)	-7%
85	O=C(Nc1ccc(Cl)cc1C(=O)Nc1ccncc1)c1ccco1	?
86	CCN(CC(=O)NCc1ccc(F)cc1)C(=O)COc1ccc2ccccc2c1	-6%
87	Cc1nnc(NC(=O)c2ccc(C)c(S(=O)(=O)N3CCOCC3)c2)s1	-7%
88	CCOc1ccc2nc(COC(=O)c3ccco3)c(C(C)=O)[n+]([O-])c2c1	-20%
89	Oc1cnn(-c2ccccc2)c1	-20%
90	C[C@H](NC(=O)[C@@H]1C[C@H]1[C@@H](NC(=O)OCc1ccccc1)c1ccccc1)c1ccccc1	-3%
91	O=C(CSc1nnc(-c2ccccc2Br)o1)N1CCN(C(=O)c2ccco2)CC1	28µM*
92	COc1ccc(C(=O)Nc2cc(C(F)(F)F)ccc2-n2cncn2)cc1	-10%
93	Cc1cccc(NS(=O)(=O)c2ccc3nc(-c4ccccc4)[nH]c3c2)c1C	2%
94	O=C1CCCN1CC(O)CS(=O)(=O)c1ccc(Cl)cc1 (stereo unspecified)	5%
95	CCOc1ccccc1OCCn1ncc2ccc(OC)c(OC)c2c1=O	-19%
96	Cc1nc(SCn2nnc3ccccc3c2=O)c2c(C)c(C)sc2n1	-10%
97	COc1ccc(CCNC(=O)COC(=O)c2ccc(Br)o2)cc1OC	-1%
98	O=C(c1ccccc1)[C@@H]1O[C@H]1c1ccc(-c2ccccc2)cc1	?
99	O=C(O)CNC(=S)N(Cc1cccs1)C1CCCCC1	-9%
100	O=C1CC(N(O)C2CC(=O)N(Cc3ccccc3)C2=O)C(=O)N1Cc1ccccc1 (stereo unspecified)	32µM*
101	COc1cccc(C2c3c(-c4cc(Cl)c(C)cc4O)n[nH]c3C(=O)N2Cc2cccnc2)c1 (stereo unspecified)	-12%
102	CCN(CCCNC(=O)c1c(C)cc(=O)oc1C)c1ccccc1	-19%
103	O=C(OCC(=O)N1CCN(C(=O)c2ccco2)CC1)c1cc(-c2ccc(Cl)c(Cl)c2Cl)nc2ccccc12	?
104	COCCN1Cc2cccc(C(=O)Nc3ccc(C)c(C)c3)c2C1=O	-13%
105	COc1ccc(NC(=O)CN2CCN(CC(=O)Nc3cc(OC)cc(OC)c3)CC2)cc1	-16%
106	CCOC(=O)C1=C(CSc2nc(-c3ccccc3)ccc2C#N)OC(N)=C(C#N)C1c1cccnc1 (stereo unspecified)	-8%
107	CSC1=N/C(=C\c2ccccc2)C(=O)N1C	-7%
108	Cc1cc(C)n(Cc2ccc(NC(=O)c3c([N+](=O)[O-])c(C)nn3C)cc2)n1	-13%
109	COc1ccc(C2=C(CC(=O)O)C(=O)CC2)cc1	?
110	CCCc1cc(=O)[nH]c(Nc2ccc(OC)c(Cl)c2)n1	-7%
111	CCCN1C2CCCC1CC(NC(=O)C1CCCCC1)C2 (stereo unspecified)	0%
112	CCCn1c(CN2CCCCC2CC)nc2c1c(=O)n(C)c(=O)n2C (stereo unspecified)	-2%
113	CO/N=C(\Cn1ncc(NC2CCCCC2)c(Br)c1=O)c1ccc(Cl)cc1	-7%
114	CCOC(=O)c1sc2nc(CC(=O)OC)nc(N3CCN(c4ccc(OC)cc4)CC3)c2c1C	-11%
115	CC1CN(C(=O)c2ccc(C(=O)c3ccccc3)cc2)CC(C)O1 (stereo unspecified)	14µM*
116	CC(C(=O)NC(=O)NC1CCCCC1)N1CCN(C(c2ccccc2)c2ccccc2)CC1 (stereo unspecified)	-8%
117	CC(=O)c1ccc2c(c1)C1C=CCC1C(c1ccc(S(=O)(=O)N3CCOCC3)cc1)N2 (stereo unspecified)	-9%
118	O=C(CCC(=O)N(c1ccc(F)cc1)C(C(=O)NC1CCCC1)c1ccncc1)Nc1cccnc1 (stereo unspecified)	-2%
119	CC(C)c1nc(CN(C)C(=O)N[C@H](C(=O)N[C@@H](Cc2ccccc2)C[C@H](O)[C@H](Cc2ccccc2)NC(=O)OCc2cncs2)C(C)C)cs1	-19%
120	Cc1cc(C(=O)CSc2nc3ccccc3[nH]2)c(C)n1Cc1ccco1	-23%
121	CO[C@@H](CCOCc1ccccc1)C[C@H]1O[C@H](C(=O)OC(C)C)C=C[C@@H]1C	-10%
122	CN(C)c1nc(SCC#N)nc(N(C)C)n1	-6%
123	CCC(CC)C(=O)Nc1ccc(Nc2ccccc2)cc1	-13%
